Sa helicase inh: S. aureus DNA helicase inhibition; purified S. aureus helicase, fluorescence unwinding assay; about half of the hits fall short of the stated cut; inhibition, %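 (tested at about 80 µM)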; hit rate 0.05% among 120,000;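 active = both duplicates at 50% or more, or one of them with a favoured structure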;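 also: 0% = mean of negative control wells and 100% = mean of positive control wells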
MgrA DNA FP: S. aureus MgrA-DNA binding modulation; inhibition, %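 (about 10 µg/mL by stock and volumes)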; fluorescence polarization; AID 602314; hit rate 0.13% among 84,000;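 active = above 50% in either of two replicates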;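 also: 0% = protein plus DNA without compound and 100% = DNA alone without protein; higher means less MgrA bound to DNA so lower polarization; one replicate is shown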
Numbers without * were called inactive; / = no result given. Not all compounds are listed, so the mix of outcomes need not match the whole.

compound | MgrA DNA FP | Sa helicase inh
O=C(/C=C/c1ccc(Cl)cc1)Nc1nccs1 | -6.6 | 4.0
Oc1ccccc1C1CCCCC1c1ccccc1 (stereo not drawn) | 2.2 | -2.0
CC(=O)Nc1ccc(S(=O)(=O)N2CCCC2c2ccc3c(c2)OCCCO3)cc1 (stereo not drawn) | / | -6.0
C=CCn1c(/N=C/c2ccc(OC)cc2)nc2ccccc21 | / | -20.0
Cc1onc(-c2c(Cl)cccc2Cl)c1C(=O)Oc1noc2ccccc12 | -2.5 | /
O=C1NC(=O)NC(=C/C=C/c2ccc(-c3ccc(Cl)cc3Cl)o2)N1 | / | 1.0
O=C(Nc1c(C(=O)N2CCOCC2)cnn1-c1ccccc1)c1ccco1 | 0.7 | 4.0
CC(=O)Nc1ccc(N=Cc2ccc(OC(=O)c3ccccc3Br)cc2O)cc1 | / | -18.0
O=C(NCc1cccs1)c1cccnc1C(=O)O | / | 2.0
Cc1cccc(Cn2c(=O)[nH]c3ccccc32)c1 | / | 6.0
CSc1nc(N)nc(N(C)C)n1 | -1.8 | /
COC(=O)N/N=C/c1cc(C)n(-c2ccccc2)c1C | / | -19.0
COc1ccc(C(=O)c2oc3ccccc3c2N)cc1 | / | -14.0
O=C(Nc1ccc(C(=O)NCCCN2CCCCC2)cc1)C1=CSCCO1 | / | 10.0
Nc1nnc(CCN2C(=O)CSC2=O)s1 | 6.8 | -5.0
O=C(Nc1ccccc1C(=O)N1CCOCC1)c1ccccc1 | 0.1 | -12.0

3 entries from above, ordered by molar mass, ascending:
compound | MgrA DNA FP | Sa helicase inh
Oc1ccccc1C1CCCCC1c1ccccc1 (stereo not drawn) | 2.2 | -2.0
O=C(Nc1ccc(C(=O)NCCCN2CCCCC2)cc1)C1=CSCCO1 | / | 10.0
CC(=O)Nc1ccc(S(=O)(=O)N2CCCC2c2ccc3c(c2)OCCCO3)cc1 (stereo not drawn) | / | -6.0

Returning to the listing; the 6 compounds before the break are reprinted first.
compound | MgrA DNA FP | Sa helicase inh
CSc1nc(N)nc(N(C)C)n1 | -1.8 | /
COC(=O)N/N=C/c1cc(C)n(-c2ccccc2)c1C | / | -19.0
COc1ccc(C(=O)c2oc3ccccc3c2N)cc1 | / | -14.0
O=C(Nc1ccc(C(=O)NCCCN2CCCCC2)cc1)C1=CSCCO1 | / | 10.0
Nc1nnc(CCN2C(=O)CSC2=O)s1 | 6.8 | -5.0
O=C(Nc1ccccc1C(=O)N1CCOCC1)c1ccccc1 | 0.1 | -12.0
N#Cc1c(-c2cccs2)cc(C2CC2)nc1SCC(N)=O | / | -2.0
COc1ccccc1CCn1cc(C#N)c(=O)[nH]c1=O | 1.4 | /
CNC(=S)Sc1ccc(F)cc1F | -5.3 | /
Cc1c(Cl)cc(F)cc1S(=O)(=O)N1CC=C(c2ccccc2)CC1 | -1.4 | /
NC(=O)C1CCN(C(=O)c2ccc3c(=O)n4c(nc3c2)CCCC4)CC1 | / | -10.0
Cc1ccc(S(=O)(=O)N2CCCC(NC(=O)N3CCCCC3C)C2)cc1 (stereo not drawn) | / | -20.0
CCC(C)NC(=O)c1nn(-c2ccc(OC)cc2)c(=O)c2c1c1ccccc1n2C (stereo not drawn) | / | -22.0
Cc1cc(C(=O)OC(C)C(=O)Nc2cccc(C(F)(F)F)c2)c(C)o1 (stereo not drawn) | / | -10.0
Cc1ccc(C)c(S(=O)(=O)c2n[nH]n3c2nc(=O)c2sccc23)c1 | / | -16.0
Cc1ccc2ncnc(NC(CO)C(=O)O)c2c1 (stereo not drawn) | / | 7.0
Cc1ccc(Cl)cc1N1CCN(CCCNC(=O)CN2C(=O)CSc3ncccc32)CC1 | / | 31.0
COc1ccc2cc(C(=O)Nc3ccccc3)sc(=O)c2c1OC | / | -16.0
COc1ccc(COC(=O)C2=C(C)NC3=C(C(=O)CCC3)C2c2coc3ccccc3c2=O)cc1 (stereo not drawn) | -0.5 | /
O=C(NCC1CCCO1)c1csc2c1CCCC2 (stereo not drawn) | 0.4 | 4.0
CC1CCOC2(CCC(C(C)(C)C)CC2)O1 (stereo not drawn) | 1.4 | -8.0
CNc1ccc(OC(F)F)cc1C(=O)c1ccccc1 | / | -9.0
NC(=S)c1cccs1 | / | 9.0
CCOc1ccc2c(c1)s/c(=N\C(=S)NC(=O)CN1C(=O)CCC1=O)n2C | / | 19.0
CN1c2ccccc2C(=O)/C(=N\Nc2ccccc2Cl)S1(=O)=O | / | -100.0
COc1cc(OC)cc(C(=O)NCCc2cc3ccc(C)c(C)c3[nH]c2=O)c1 | / | -14.0
Cc1ccccc1NS(=O)(=O)c1ccc(-n2cnnn2)cc1 | -6.7 | -4.0
CC(=O)Nc1ccc(NC(=O)[C@@H]2CCCC[C@@H]2C(=O)O)cc1 | -1.0 | 2.0
O=S(=O)(c1ccccc1C(F)(F)F)N1CCN(c2ccccc2O)CC1 | / | 9.0
CC(=O)NCCc1c(F)cccc1Cl | -0.8 | /
COc1ccccc1N1CCN(C(=O)c2ccccc2C(F)(F)F)CC1 | 1.8 | 8.0
Cc1ccc(Cn2c(=O)c3ccccc3n3c(SC4CCOC4=O)nnc23)cc1 (stereo not drawn) | / | -14.0
CCOc1cc(/C=C2\SC(=S)N(CCCC(=O)O)C2=O)ccc1O | 2.5 | 4.0
COc1cccc(CC(=O)Nn2c(C)nc3ccccc3c2=O)c1 | 3.6 | 2.0
O=C(c1ccncc1)N(Cc1cc2ccccc2[nH]c1=O)c1ccccc1 | -1.8 | 5.0
O=C1N=c2ccccc2=C1c1sc(=O)[nH]c1O | 8.2 | 6.0
CCOC(=O)CSc1nc(-c2cccnc2)nn1C(=O)c1ccccc1 | -0.1 | 10.0
CC(C)OC(=O)c1cc(=O)[nH]c2ccccc12 | 1.9 | 13.0
CCc1ccc(-c2csc3ncn(CC(N)=O)c(=O)c23)cc1 | 1.2 | -2.0
CC(C(=O)NC1CCc2ccccc21)n1nc2ccccc2n1 (stereo not drawn) | / | -16.0
N#CC(c1ccc(O)cc1)N1CCOCC1 (stereo not drawn) | -2.8 | /
N/C(=N\C(=O)N1CCOCC1)c1ccccc1OC(F)(F)F | / | -24.0
CCc1ccc(-c2nc(CN3CCC(C(=O)NCc4ccccc4Cl)CC3)c(C)o2)cc1 | / | 20.0
Clc1ccc(CCNc2ncnc3onc(-c4ccc(Cl)cc4)c23)cc1 | / | -15.0
Cn1cccc1Cc1nnc(SCC(=O)N2CCCCC2)n1CCc1ccccc1 | 0.7 | 11.0
CC1CCC2(CC1)Nc1ccccc1S2 (stereo not drawn) | 2.9 | 2.0
CCC(=O)Nc1cc(OC)cc(OC)c1 | 2.6 | /
COc1ccc(N(CC(=O)NCc2ccc(Cl)cc2Cl)S(=O)(=O)c2ccccc2[N+](=O)[O-])c(OC)c1 | 0.6 | /
CCN(CC)CCNc1nc2c(c(=O)n(C)c(=O)n2C)n1Cc1ccc(Cl)c(Cl)c1 | 1.4 | /
Cc1ccc2cc(C(F)(F)F)ccc2n1 | / | 2.0
CNc1ccc(C(=O)O)cc1 | -1.6 | /
CCS(=O)(=O)c1ccc2oc(SCc3nc4ccccc4s3)nc2c1 | / | -2.0
CCOC(=O)N/N=C/c1ccc(OC)c(Br)c1 | -3.2 | /
Nc1nc(-c2ccncc2)ncc1S(=O)(=O)Cc1ccco1 | 1.8 | /
Cc1ccc(-c2csc(NC(=O)/C=C/c3ccco3)c2C(=O)O)cc1 | 6.8 | 12.0
O=C(/C=C/c1ccco1)N(Cc1nnc(-c2ccccc2Cl)o1)C1CC1 | / | 5.0
N#CCN(CC#N)C(=O)c1ccc(Cl)cc1Cl | -0.2 | /
Cc1cc(NC(=O)Cn2c(=O)n(CCCC(=O)NCc3ccccc3Cl)c(=O)c3ccccc32)n[nH]1 | / | 4.0
CCCc1nc(SC)ncc1C(=O)NCc1ccc(F)cc1 | / | 13.0
O=C1c2ccccc2C(=O)N1CCC(=O)N(C1CCCCC1)C1CCCCC1 | -0.2 | 15.0
CC(C)Sc1sc(C#N)c2c1C(=O)CC(C)(C)C2 | 1.1 | /
Cc1oc2c(F)c(F)c(F)c(F)c2c1C(=O)Oc1ccc(Br)cc1 | / | 3.0

(cont.)
compound | MgrA DNA FP | Sa helicase inh
CC(C)NC(=O)C1CC(c2ccc(F)cc2)=NO1 (stereo not drawn) | 0.4 | -14.0
S=c1[nH]nc(CSCc2cccc3ccccc23)n1C1CCCCC1 | 0.1 | /
CCN(CC)CCC(=O)N1c2ccccc2CCc2ccc(NC(=O)OC(C)C)cc21 | -1.7 | -5.0
Clc1ccc2c(-n3nnc4ccccc43)ccnc2c1 | / | -12.0
O=C(O)CSc1c2c(nc3cc(C(=O)N4CCCc5ccccc54)ccc13)CCCC2 | / | 4.0
O=C(COCC(=O)N1CCc2ccccc2C1)N1CCc2ccccc2C1 | 0.8 | 2.0
c1ccc2c(c1)oc1c(NCC3CCCO3)ncnc12 (stereo not drawn) | / | -6.0
COc1ccc(-c2ncnc(C(F)(F)F)c2-c2cscn2)c(O)c1 | -1.8 | 7.0
COc1ccccc1C(=O)NCCC(=O)NC1CCCCCC1 | / | 5.0
CC(=O)NC(=O)c1cc2cc(Br)ccc2oc1=Nc1cccc(F)c1 | -0.3 | /
CN=C(NC1CCCCC1)SCc1ccccc1 | -0.9 | /
CCOC(=O)c1sc(-c2ccc(C)cc2)c(C#N)c1C | 4.6 | 9.0
O=C(Nc1nc(-c2ccccc2)cs1)C1=COCCO1 | / | -9.0
CC(=O)N(CN1C(=O)c2ccccc2C1=O)c1ccccc1C | 0.4 | 9.0
O=C1C2CC=CCC2C(=O)N1Cc1ccccc1 (stereo not drawn) | 0.3 | 7.0
CN1c2ccsc2C(=O)/C(=C/Nc2cccnc2)S1(=O)=O | / | 6.0
N#Cc1c(-c2ccc(Cl)cc2)cc[nH]c1=O | 0.9 | /
Cc1cc(NC=C(C#N)C#N)no1 | / | -2.0
COn1c2c(c3c4nonc4ccc31)CCCC2 | 2.9 | /
Cn1cc(/C=C(\C#N)C(=O)OC2CCCCC2)c2ccccc21 | / | 10.0
CCOC(=O)c1cc2c(=O)n(C)c3ccccc3c2s1 | / | 20.0
O=C(CSc1nncn1-c1ccccc1)Nc1ccccc1C(=O)Nc1ccc2c(c1)OCO2 | / | -15.0
CCOc1ccc(N2C(=O)NC(=O)/C(=C\c3ccc(Br)cc3)C2=O)cc1 | 7.3 | /
Nc1ncnc(-c2ccccc2)n1 | 0.1 | /
O=C1Nc2ccccc2C1C1(O)C(=O)Nc2ccc(F)cc21 (stereo not drawn) | 2.5 | 23.0
Cc1ccccc1Cn1c(N2CCC(C(=O)N3CCN(C(=O)c4ccco4)CC3)CC2)nc2ccccc21 | / | -20.0
c1ccc(CNc2ncnc3ccccc23)cc1 | / | 3.0
COc1cccc(/C=C/C(=O)NC2=NCCS2)c1 | / | -5.0
N#CC1=C(N)OC2=C(C(=O)CCC2)C1c1cc2cc3c(cc2nc1Cl)OCO3 (stereo not drawn) | 0.3 | 9.0
O=C(COC(=O)c1ccccc1Nc1ccccc1)c1ccc(Cl)cc1 | -2.0 | /
Cn1cc(C(=O)NCCc2ccccc2)c(=O)c2cc(S(=O)(=O)N3CCCC3)ccc21 | -4.3 | 11.0
O=c1cc(C(F)(F)F)[nH]c2cc(C(F)(F)F)ccc12 | 1.4 | /
COc1ccc(S(=O)(=O)N2CC(O)CC2C(=O)OCc2nc3sc(C)c(C)c3c(=O)[nH]2)cc1 (stereo not drawn) | / | -42.0
c1ccc(-n2nnnc2SSc2nnnn2-c2ccccc2)cc1 | / | -2.0
COc1ccc(CN(C)C(=O)c2ccc(=O)[nH]c2)cc1 | / | 1.0
O=C(Nc1cccc2c1C(=O)c1ccccc1C2=O)c1ccc(S(=O)(=O)N2CCCCC2)cc1 | -3.5 | /
Cc1nc(C(F)(F)F)ccc1C(=O)NCC(O)c1ccccc1 (stereo not drawn) | 0.6 | /
CN1CCC(N(C)C(=S)NCCc2ccccc2)CC1 | 2.4 | 19.0
CCSc1nc(-c2ccccc2)nc2c1CCCC2 | 0.4 | 10.0
O=C(CSC1CCCC1)Nc1ccc(N2CCOCC2)cc1 | / | -15.0
CCCn1c(SCc2c(C)noc2C)nc2ccccc2c1=O | / | 0.0
c1ccc(CCn2cnc3ccccc32)cc1 | / | -14.0
Cc1nn(-c2ccccc2)c2sc(C(=O)c3nccn3C)cc12 | -1.6 | 0.0
Cc1ccc(/C=C(\NC(=O)c2ccccc2)C(=O)NCC2CCCO2)o1 (stereo not drawn) | 2.5 | -4.0
CCOC(=O)C1CCCN(C(=O)CN2N=C(c3ccccc3)CCC2=O)C1 (stereo not drawn) | / | 8.0
CCOC(=O)C(C#N)C(c1ccc2c(c1)OCO2)c1ccccc1OC (stereo not drawn) | / | 3.0
O=C(Cn1c(-c2ccccc2)c[n+]2ccsc12)c1ccccc1 | / | -22.0
S=c1sc2ccccc2n1CCn1c(=S)sc2ccccc21 | 0.1 | /
N#Cc1cc(C(N)=O)c(SCc2ccccc2)nc1N | / | -20.0
O=c1cc(O)c2cccc3c2n1CC3 | 2.1 | /
CC(=O)N1CCc2c(sc(NC(=O)/C=C/c3ccccc3)c2C#N)C1 | / | -31.0
CC(CS(=O)(=O)c1ccc2c(c1)NC(=O)C(C)S2)C(=O)NC1CCCCCC1 (stereo not drawn) | / | 22.0
CC(C)(C)c1cc(CN)c(C(=O)O)o1 | -8.6 | 5.0
CCc1ccnc(NC(=O)CC2(CC(=O)O)CCCCC2)c1 | -1.4 | /
Cc1ccc(CC(C#N)Sc2nnc3n2CCCCC3)cc1 (stereo not drawn) | / | -3.0
CN(Cc1ccccc1)C(=O)CN1C(=O)c2cccc3cccc1c23 | / | -14.0
COC(=O)COc1ccc(S(=O)(=O)N2CCN(c3ccccc3F)CC2)cc1Cl | 2.4 | 7.0

High-throughput results: PubChem, ICCB-Longwood Screening Facility, Harvard Medical School
